Source: PubChem BioAssay (several laboratories)
Rce1 inhib: blocks yeast Ras-converting enzyme. yeast membranes, quenched prenylated peptide cleavage fluorescence. calls only. hit rate 0.27% among 290,000;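 active = fall in fluorescence gain of 50% or more versus controls, with final raw signal at or below 3038400; inconclusive = same 50% fall but final raw signal above 3038400; inactive = fall in fluorescence gain under 50%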;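 note: plate controls were neutral control wells for no effect and wells lacking membranes for full effect; tested at 10 µM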
Yeast UUG start: alters start codon recognition fidelity in yeast | S. cerevisiae UUG-firefly luciferase reporter, luminescence/redox ratio | activity score, % at 18.7 µM | hit rate 0.13% among 350,000 | AID 602363;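 active = replicate mean at a twofold rise or more, about +100% in these data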;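 note: firefly luciferase made from a UUG start codon reports start codon fidelity; reporter light over untreated wells divided by growth signal over untreated wells; some hits fall short of that in this replicate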
PABP polyA inh: blocks human PABP binding to poly(A) RNA; P11940; fluorescence polarization; inhibition, % at 35 µM; hit rate 1% among 290,000; AID 2014;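 active = 50% or more with normal probe brightness, or confirmed in later tests; inconclusive = above 50% with abnormal brightness, or retests that disagree; inactive = below 50% or failed in later tests; about a fifth of its hits are not listed in these tables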;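 note: calls also rest on retests at 20 µM and on dose response follow-up; controls were probe without protein and protein plus probe with vehicle; some compounds called inactive have numbers as strong as hits; many hits fall short of the cut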
Target sequence (P11940 whole entry, looked up): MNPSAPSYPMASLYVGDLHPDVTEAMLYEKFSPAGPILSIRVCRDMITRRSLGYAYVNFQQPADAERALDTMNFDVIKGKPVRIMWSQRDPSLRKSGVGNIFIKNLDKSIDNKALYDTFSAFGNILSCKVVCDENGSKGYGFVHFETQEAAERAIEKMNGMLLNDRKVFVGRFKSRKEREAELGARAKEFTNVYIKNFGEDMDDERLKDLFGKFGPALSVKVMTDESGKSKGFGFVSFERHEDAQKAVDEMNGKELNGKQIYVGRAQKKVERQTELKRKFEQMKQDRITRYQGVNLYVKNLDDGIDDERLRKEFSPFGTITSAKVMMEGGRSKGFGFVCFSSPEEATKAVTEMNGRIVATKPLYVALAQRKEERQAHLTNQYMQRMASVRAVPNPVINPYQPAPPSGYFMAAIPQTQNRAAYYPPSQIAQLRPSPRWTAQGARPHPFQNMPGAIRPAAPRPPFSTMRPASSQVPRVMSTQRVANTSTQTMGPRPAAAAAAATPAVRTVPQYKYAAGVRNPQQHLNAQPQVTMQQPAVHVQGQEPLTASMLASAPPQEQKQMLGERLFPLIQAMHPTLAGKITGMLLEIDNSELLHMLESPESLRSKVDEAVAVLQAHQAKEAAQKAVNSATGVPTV
CSC inhib: blocks cancer stem cells. cancer stem cell-like cells viability, luminescence. inhibition, % at 7.5 µM. hit rate 1.1% among 300,000. AID 2717;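 active = mean at 75% or more and at least half the replicates too; inconclusive = mean and replicates disagree; tested in HMLE shEcad cells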;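 note: 0% = median of negative and 100% = median of positive control wells; the first replicate is given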
eIF4H inh: inhibitors of RNA binding by human eIF4H; Q15056; hit rate 0.94% among 290,000; eIF4H fluorescence polarization binding assay; inhibition, % at 35 µM;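 active = 50% or more with normal probe brightness, or confirmed in later tests; inconclusive = above 50% with abnormal brightness, or retests that disagree; inactive = below 50% or failed in later tests; about a fifth of its hits are not listed in these tables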;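 note: calls also rest on retests at 20 µM and on dose response follow-up; 0% = protein and probe with vehicle and 100% = probe without protein; strong numbers were not always called active; many hits fall short of the cut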
MT1-MMP act inh: blocks activation of human MT1-MMP | P50281 | HT1080 RFP-PRO-GFP cells, GFP/RFP ratio fluorescence, overnight; percent of plate control window, DMSO zero | GFP/RFP ratio change, % at 20 µM | hit rate 0.061% among 360,000;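 active = GFP/RFP ratio change of at least 30% with cell ATP level not reduced by more than half and red fluorescence within 50% of control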; note: strong numbers were not always called active
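Assay system: HT1080 cells carrying an RFP-PRO-GFP reporter | Dosing: Single dose of 20 µM compound, 1% DMSO final | Incubation: Cells overnight before dosing, compound overnight, 37 °C, 5% CO2 | Evaluation: GFP/RFP fluorescence ratio | Control set: DMSO and RFP-L50D-GFP cell wells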
Env fusion inh: inhibitors of HIV Env-mediated cell fusion. HeLa-JRFL Env/CEM21 cell fusion, luciferase. inhibition, % at 12.3 µM. hit rate 1.1% among 360,000. AID 651610;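 active = mean replicate inhibition score of at least 50 and every replicate individually at or above 50; inconclusive = only one of the two criteria met; inactive = mean below 50 and not all replicates reaching 50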;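 note: 0% = plate neutral controls and 100% = maraviroc near 300 nM; one replicate is shown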
MT1-MMP act inh RFP: also measured in MT1-MMP act inh; calls as there; RFP signal change, %; measured here: RFP expression control read;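 0 = vehicle wells; hits needed this value within 50% of zero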
The depositor's hits bear a star; i = inactive; ? = inconclusive; nt = not tested or not shown; + = active, no number.

Molecule,Rce1 inhib,Yeast UUG start,PABP polyA inh,CSC inhib,eIF4H inh,MT1-MMP act inh,MT1-MMP act inh RFP,Env fusion inh
N=C1C2=C3Sc4ccccc4N3CCCC2=NN1c1cccc(S(=O)(=O)O)c1,i,-16,10,-8,-10,3,6,9
CC1(N2CCCCC2)CC2(O)C(=[N+]1[O-])CCC/C2=N\O (stereo not drawn),i,-19,-7,-20,9,-4,4,-2
Cc1ccc(C(=O)NCCc2nnc3ccc(N4CCCC4)nn23)cc1,i,-23,10,-11,0,1,1,-11
CCCOc1ccc(-c2csc(NC(=O)CN3C(=O)CCC3=O)n2)cc1,i,nt,6,2,-6,3,0,6
C=CCNC(=O)COC(=O)/C=C/c1cccs1,i,-17,-2,-10,3,-1,-2,-2
COc1cc2cc(CCCOC(=O)c3cc(OC)c(OC)c(OC)c3)oc(=O)c2cc1OC,nt,-8,nt,nt,nt,4,8,-11
O=C(NNc1cc(Cl)ccc1Cl)c1cccs1,i,-11,-6,4,-6,1,2,12
CC(C)N(CCCNC(=O)C1CCC(CNS(=O)(=O)c2ccccc2)CC1)Cc1ccccc1 (stereo not drawn),i,8,6,18,-4,3,3,7
CC(C)(C)OC(=O)N1CCCC(C(=O)Nc2cccc(C(=O)N3CCCCC3)c2)C1 (stereo not drawn),nt,7,nt,nt,nt,3,4,7
Cc1ccc2cc(C#N)c(NCc3ccco3)nc2c1,i,-17,5,nt,4,1,3,-56
CCn1c(C)nnc1SCC(=O)Nc1ccc(Cl)cc1,i,-7,-3,-12,-6,0,0,-14
CC1CCCC(C)N1Cc1cn2ccccc2n1 (stereo not drawn),i,nt,4,nt,-12,3,3,nt
O=c1c2ccccc2c(-c2cccc(C(F)(F)F)c2)nn1-c1ccccc1,i,-10,10,5,-13,-2,-3,19
Cc1ccc(Oc2ccc3c(c2)C(=O)N(c2ccc(S(=O)(=O)Nc4nccs4)cc2)C3=O)cc1,i,-4,-15,-6,30,2,2,nt
COc1cccc(NC(=O)/C=C/c2ccco2)c1,i,nt,-18,-1,-3,-2,-2,-94
CCN(CC(=O)NCc1ccc(Cl)cc1)S(=O)(=O)c1ccc(F)cc1,i,-11,5,2,1,4,2,5
CC(C)c1cccc(C2=CC(=O)C[C@H](c3ccc4c(c3)OCO4)C2)c1,nt,-2,nt,28,nt,1,-4,17
COc1cc(OC)cc(C(=O)NNC(=O)CN2C(=O)NC(C)(c3ccc(C)cc3)C2=O)c1 (stereo not drawn),i,16,nt,-5,nt,7,4,-37
Clc1ccccc1CNc1nc2ccccc2n2cnnc12,i,nt,-2,2,-3,1,2,-25
COCCNC(=O)C1=C(N)C(C(=O)Nc2ccc(C)c(S(=O)(=O)N3CCCCC3)c2)SC1=Nc1ccc(C)cc1C (stereo not drawn),i,-18,7,9,3,-3,-7,nt
Cc1cc(NC(=O)C(C)SCC(=O)N(C)CC(=O)Nc2ccccc2C(F)(F)F)no1 (stereo not drawn),nt,-11,nt,nt,nt,2,3,0
CC(=O)c1cccc(-c2ccnc3c2CC(C(=O)Nc2ccc(F)c(Cl)c2)O3)c1 (stereo not drawn),nt,-15,nt,nt,nt,-2,-21,41
CC(C(=O)NCc1ccc2c(c1)OCO2)N(c1ccccc1)S(C)(=O)=O (stereo not drawn),i,-17,-7,-8,-4,1,-4,-70
O=C(NCCc1ccccc1)c1ccc(Cl)c(S(=O)(=O)N2CCCC2)c1,i,-6,12,3,0,-2,-23,nt
CN(C)c1ccc(C(C#N)c2ccccc2)nn1 (stereo not drawn),i,-13,-7,-16,-2,-4,-2,4
Cc1cc(C)c(NC(=O)CSc2nc3ncc(Br)cc3[nH]2)c(Cl)c1,i,-21,-9,26,4,0,-4,0
COC(=O)c1ccc(S(=O)(=O)N2CCOCC2)o1,i,-21,10,-9,-5,-1,2,1
Cc1ccc(NC(=O)/C(C#N)=C/c2ccc(C)s2)c(C)c1,i,-14,?,-17,?,-56,20,nt
CC[n+]1ccc(C)c2cc(P(=O)(c3ccccc3)c3ccccc3)ccc21,i,-22,-4,-7,36,-3,-6,9
CC(=O)Nc1nnc(COc2ccccc2)s1,i,nt,-2,1,0,4,3,2
COc1ccc(N2CC(C(=O)Nc3nnc(SCC(=O)N4CCCC4)s3)CC2=O)cc1 (stereo not drawn),i,-8,5,-13,6,-3,2,-1
O=C(/C=C/c1ccccc1[N+](=O)[O-])OCC(=O)N1CCCC1,nt,-16,nt,-17,nt,-2,3,nt
CS(=O)(=O)NCCn1ccc2ccccc21,i,nt,4,-8,12,-12,6,4
CC[C@]12C(=O)N(C)C[C@H]([C@@H]3C(=O)N(C)C(=O)[C@@H]31)N2C(=O)c1ccccc1,nt,-11,nt,nt,nt,-5,1,8
O=C1c2ccccc2S(=O)(=O)c2cc(N3CCN(C(=O)c4ccccc4)CC3)ccc21,i,nt,nt,8,nt,nt,nt,21
Cc1cnc(C(=O)Oc2cccc(Cl)c2Cl)cn1,nt,-8,1,-7,0,0,4,6
COc1ccc(/C=C(\NC(=O)c2ccco2)C(=O)NC(Cc2ccccc2)C(=O)O)cc1 (stereo not drawn),i,-7,4,0,12,-4,-1,-11
COc1ccc(C(=O)N2CCN(C(=O)C3COc4ccccc4O3)CC2)cc1 (stereo not drawn),i,-25,-6,-1,-8,4,8,0
CCC1CCC(C(=O)NNC(=O)c2cc(-c3ccco3)[nH]n2)CC1 (stereo not drawn),i,nt,-7,-7,50,-2,3,16
CCOC(=O)c1c(C)n(CCNC(C)=O)c2ccc(OC)cc12,i,-29,-4,-11,-2,7,-1,0
COc1ccc(NC2=CC(c3ccc(F)cc3)N(c3ccc(OC)cc3)C2=O)cc1 (stereo not drawn),i,nt,-10,8,-8,-7,-3,nt
Nc1nc(C(F)(F)F)c(Br)c(=O)n1N,i,nt,10,3,5,-3,0,-85
CCN(CC(=O)Nc1ccc(N2CCOCC2)cc1)C(=O)c1ccc(C#N)cc1,i,nt,1,0,0,3,3,0
CC1=CC2CC1C1C(=O)N(c3ccc(S(=O)(=O)Nc4nc(C)cc(C)n4)cc3)C(=O)C21 (stereo not drawn),i,-3,4,-7,2,-2,1,-15
Cc1cc(C)nc(NS(=O)(=O)c2ccc(NC(=O)c3ccc(N4C(=O)CCC4=O)cc3)cc2)n1,i,4,1,-26,2,0,1,0
COc1cccc2cc(-c3ccnc(N)n3)oc12,i,-12,-3,nt,-1,1,-1,-75
O=C(N1CCCCC1)C1(c2ccccc2)CCOCC1,i,-8,6,-14,-1,0,2,nt
CC(=O)N[C@@H](C)c1nc2ccccc2n1CCCN1CCN(c2nc(-c3ccc(C)cc3)cs2)CC1,+,7,-13,-5,-5,0,-20,29
CC1CCCC(C)N1CCNC(=O)Nc1ccc(Cl)cc1 (stereo not drawn),i,-15,-1,-3,-3,-9,-2,-21
CC1(c2nnc(-c3ccncc3)o2)CC(c2ccc([N+](=O)[O-])cc2)=NO1 (stereo not drawn),i,-14,7,nt,5,8,-16,31
Cc1ccc(S(=O)(=O)Nc2ccc(N(C)S(=O)(=O)c3ccc(C)cc3)cc2)cc1,i,-7,4,16,2,3,-7,5
O=C1/C(=C/c2cccnc2)Sc2ccccc21,i,-25,2,nt,16,0,2,nt
COc1ccc(N2CC(NC(=O)N3CCN(C(=O)c4ccco4)CC3)CC2=O)cc1OC (stereo not drawn),i,1,nt,-6,nt,-1,-2,-16
O=C(Nc1ccccc1C(=O)NCc1ccccc1)c1ccco1,i,4,-5,nt,-6,2,7,nt
CC(C)(C)Cc1nc(-c2ccccn2)no1,i,-3,-9,-20,-1,-2,5,nt
COC(=O)/C=C1/N/C(=N\c2nc(C)cc(C)n2)N(c2ccccc2)C1=O,i,nt,-15,9,-7,-5,-3,6
COC(=O)CN(c1cccc(C(C)=O)c1)S(C)(=O)=O,i,-11,5,-19,-1,7,4,nt
CCCNC(=S)NC1CC2CCC(C1)N2Cc1ccccc1 (stereo not drawn),i,-24,-6,-15,-6,5,-2,nt
COc1ccccc1OCCNC(=O)Cc1ccc(S(=O)(=O)N2CCOCC2)s1,i,-11,nt,11,nt,-1,2,-11
Cc1sc2nc(CN3CCCC3)nc(N3CCC(C(N)=O)CC3)c2c1C,i,nt,-6,6,-10,-5,-5,nt

(next part)
Molecule,Rce1 inhib,Yeast UUG start,PABP polyA inh,CSC inhib,eIF4H inh,MT1-MMP act inh,MT1-MMP act inh RFP,Env fusion inh
COc1cc(/C=C(\CC(=O)O)c2nc3ccccc3s2)cc(OC)c1O,i,nt,-4,nt,-4,-24,4,-10
O=C(Nc1cccc(-c2nc3cc(Cl)ccc3o2)c1)C1CCCO1 (stereo not drawn),i,-29,-10,2,-11,0,3,-33
O=C(NCc1cccs1)c1cccc(Nc2nc3ccc(Br)cc3[nH]2)c1,i,11,5,13,-2,4,2,-14
CC1CCCC(NC(=O)CSc2ncccc2C(=O)O)C1C (stereo not drawn),i,6,4,-8,-5,10,13,nt
CCOC(=O)C1=C(CC)Nc2ccccc2N=C1NC(=O)c1cccc(S(=O)(=O)N2CCOCC2)c1,nt,2,nt,-15,nt,-1,1,-31
Cc1nnc(SCC(=O)Nc2ccc(S(=O)(=O)N3CCCC3)cc2)n1N,i,-10,4,-14,3,6,7,-12
COc1ccc(N(CC(=O)Nc2cccc(C(=O)O)c2)S(=O)(=O)c2c(C)noc2C)cc1,nt,-2,11,nt,11,-2,-4,-20
COc1ccc(OC)c(C(=O)c2c(C)oc3cc(Br)c(O)c(CN(C)C)c23)c1,i,8,nt,-13,nt,3,3,21
O=C(CNC(=O)c1ccccc1)NCC(=O)OCC(=O)c1ccc([N+](=O)[O-])cc1,i,nt,-2,5,-2,-3,8,21
O=C(Cn1c(=O)[nH]c2ccsc2c1=O)N1CCN(c2ccc(F)cc2)CC1,i,nt,3,0,-17,nt,nt,-10
N#Cc1c(-c2ccc(Cl)cc2)ccn2nc(CCC(=O)O)nc12,i,1,-4,-21,-10,-4,3,-32

Only part of the results is shown; rates above refer to the full screens.
